Screening data as filed in PubChem.
Menin-MLL FL inh: qHTS Assay for Inhibitors Targeting the Menin-MLL Interaction in MLL Related Leukemias: Competition With Fluorescein Labeled MLL-derived Peptide; Fluorescence polarization, fluorescein-MLL peptide displacement from menin; FP activity change, % at 61.4 µM; 290,000 tested, under 10 active; AID 1766, 2009; inconclusive = falling polarisation curve, or a change in total fluorescence; inactive = total fluorescence flat and polarisation flat or rising; no compound was filed as active; the % refers to the polarisation; negative = inhibition;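 also: % of control where 0% means no effect; inhibitors lower the polarisation; unlabelled MLL peptide was the positive control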
TRPML1 blocker: qHTS for Inhibitors of the Human Mucolipin Transient Receptor Potential 1 (TRPML1); AID 624415, 2012; Mucolipin-1 (Homo sapiens), Q9GZU1; 0.02% of 390,000 active; activity change, negative = inhibition, % (concentration not given with the values); TRPML1-inducible cells, Ca2+ dye fluorescence, FDSS; hits give low values; inhibition of EC80 agonist-evoked calcium signal; in the data active means activity change below about -50%; inconclusive means about -30% to -50%; inactive means above about -30%;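 also: stimulus is agonist 54-4 at its EC80 concentration; % is scaled to controls: 0 for no effect and ±100 for the full control effect; compound concentration not given in the record; the text of the record puts the active cut at -80%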
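TRPML1-DL cells, Tet-induced overnight (~16 h, 37 °C) at 1,500 cells/well, were loaded with Ca8 no-wash dye plus quencher for 45-90 min at room temperature. Compounds were pinned during FDSS kinetic reading; agonist 54-4 at EC80 (4 uM final) then added.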
TRPML1 agonist: qHTS for Agonists of the Human Mucolipin Transient Receptor Potential 1 (TRPML1); activation, % (test concentration not listed); TRPML1-expressing cells, Ca2+ dye fluorescence, FDSS; host cell line not named in the record; reference of the full effect not given here; 0.12% of 410,000 active; Mucolipin-1 (Homo sapiens), Q9GZU1; in the data active = activation above about 50%; inconclusive = about 30% to 50%; inactive = below about 30%; also: 0% is about no effect; the text of the record puts the active cut at 80%
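TRPML1-DL cells, Tet-induced overnight (~16 h, 37 degrees C), loaded 45-90 min at room temperature with Ca8 no-wash calcium dye plus quencher. FDSS fluorescence: 10 s baseline, compound pin-transfer, 110 s agonist read, then EC80 54-4 (4uM final) and 110 s antagonist read.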
Sfp PPTase inh: qHTS Assay for Inhibitors of Bacillus subtilis Sfp phosphopantetheinyl transferase (PPTase); Biochemical Sfp PPTase activity, qHTS; 4'-phosphopantetheinyl transferase ffp (Bacillus subtilis), Q9F4F7; AID 1490, 2009; 3.5% of 310,000 active; Potency, µM, for the others: max response, negative = inhibition, hits mostly inhibitors; active = well fitted inhibition curve with a large enough effect; inconclusive = small, poorly fitted or top-dose-only effect, or another doubt; inactive = no such curve, though single readings can be large or run the other way;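 also: the enzyme is Sfp with the accession as filed and its product quenches rhodamine fluorescence; potency is read from the fitted curve at half-maximal effect; 0% = enzyme reaction without inhibitor and -100% = no enzyme wells; top concentration of the series not given in the record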
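Fluorescence-quenching assay with 15 nM Sfp, 5 uM rhodamine-CoA and 12.5 uM BHQ-2-labelled ybbR peptide in pH 7.6 Hepes/MgCl2 buffer. Enzyme was pre-incubated with compound for 15 min at room temperature. Rate was taken from the 30-min fluorescence change (525/598 nm).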
PINK1 expr mod: A Quantitative High throughput Screen to Identify Chemical Modulators of PINK1 Expression; AID 624263, 2012; PINK1 immunofluorescence, high-content cytometry, 24 h; 0.2% of 410,000 active; Potency, µM (doses to about 76.6 µM), for the others: top-dose activation (PINK1 increase), usual class: activators; active = well fitted activation curve with a large enough effect; inconclusive = small, poorly fitted or top-dose-only effect; inactive = flat fitted curve, though single readings scatter; cell line not stated here;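 also: potency is read from the fitted curve at half-maximal effect; % of control where 0% means no effect; nearly all actives have a fitted effect of over 65% in size; a mitochondrial uncoupler was the plate control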
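Stable cell line treated 24 h with compounds at 5 concentrations (CCCP controls), then fixed and immunostained for PINK1 plus nuclear and cell stains; PINK1 immunofluorescence quantified by laser-scanning microplate cytometry.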
TRPV1 PAM: HTS Assay for Compounds that Act as Potentiators of the Vanilloid Receptor 1; Transient receptor potential cation channel subfamily V member 1 (Homo sapiens), Q8NER1; TRPV1-expressing cells, Fluo-8 calcium influx, capsaicin EC20 potentiation; host cell line not named in the record; control for the full effect not named in the record; potentiation, % at 8.33 µM; 0.02% of 320,000 active; AID 540277, 2011; active means potentiation above 80%; inconclusive means 30% to 80%; inactive means below 30%; also: 0% is about no effect
Target sequence (Q8NER1 whole entry, looked up): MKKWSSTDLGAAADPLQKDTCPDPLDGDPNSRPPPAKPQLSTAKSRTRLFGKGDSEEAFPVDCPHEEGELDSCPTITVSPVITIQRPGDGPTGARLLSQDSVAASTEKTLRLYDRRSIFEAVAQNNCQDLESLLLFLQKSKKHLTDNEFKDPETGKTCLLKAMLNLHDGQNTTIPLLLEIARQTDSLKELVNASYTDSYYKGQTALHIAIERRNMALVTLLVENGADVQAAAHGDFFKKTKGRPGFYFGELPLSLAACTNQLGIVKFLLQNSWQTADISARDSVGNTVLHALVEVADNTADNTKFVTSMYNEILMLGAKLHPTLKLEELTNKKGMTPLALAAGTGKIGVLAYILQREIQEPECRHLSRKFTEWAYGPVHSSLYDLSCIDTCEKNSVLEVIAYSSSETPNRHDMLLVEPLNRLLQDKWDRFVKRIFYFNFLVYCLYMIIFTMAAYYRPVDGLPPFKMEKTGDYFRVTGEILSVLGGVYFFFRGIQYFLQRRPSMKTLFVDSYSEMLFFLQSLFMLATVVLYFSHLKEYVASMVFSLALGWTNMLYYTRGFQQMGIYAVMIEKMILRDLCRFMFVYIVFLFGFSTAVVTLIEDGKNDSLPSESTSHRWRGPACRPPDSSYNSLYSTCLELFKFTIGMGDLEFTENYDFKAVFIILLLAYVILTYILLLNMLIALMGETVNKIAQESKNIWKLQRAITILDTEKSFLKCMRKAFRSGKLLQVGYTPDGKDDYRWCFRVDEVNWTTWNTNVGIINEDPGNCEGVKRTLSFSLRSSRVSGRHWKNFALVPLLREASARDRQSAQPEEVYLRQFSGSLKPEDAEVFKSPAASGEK
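TRPV1-expressing cells were cultured overnight at 35.5C and loaded with Fluo-8 calcium dye for 40 to 90 min at room temperature. After a 10 s baseline, compound was added and calcium influx was read kinetically for 3 min (ex 480/em 520 nm).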
ClpP mod: qHTS Assay for Activators of ClpP; ATP-dependent Clp protease proteolytic subunit (Bacillus subtilis (strain 168)), P80244; purified B. subtilis ClpP, FRET peptide cleavage, 20 min; Potency, µM (series often up to 57.5 µM), for the others: at the top dose activity change, negative = active; 1.9% of 340,000 active; AID 651965, 2013; active = well fitted falling curve with a large enough effect; inconclusive = small, poorly fitted or top-dose-only effect; inactive = no such curve, though single readings can be large or run the other way; also: potency is read from the fitted curve at half-maximal effect; the source files actives as falling curves though it sought activators and does not explain the sign; nearly all actives have a fitted effect of over 65% in size; many hits overshoot -100%
Target sequence (P80244 whole entry, looked up): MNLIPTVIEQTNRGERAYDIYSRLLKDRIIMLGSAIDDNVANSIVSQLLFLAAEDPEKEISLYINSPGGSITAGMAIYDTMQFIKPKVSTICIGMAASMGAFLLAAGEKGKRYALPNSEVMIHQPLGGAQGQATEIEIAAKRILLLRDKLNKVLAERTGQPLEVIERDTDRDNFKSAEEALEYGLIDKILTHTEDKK
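Buffer: 100 mM Tris/HCl pH8, 100 mM KCl, 0.05% low protease BSA, 2.5% glycerol, 0.01% Tween-20. ClpP 10 microg/mL final; 20 min RT; delta FRET normalized to ADEP and DMSO controls.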
* hit, by the source's call; ? = inconclusive; . = no result given; & = joins results of further samples; [ ] = another dose, or the depositor's remark.

SMILES	Menin-MLL FL inh	TRPML1 blocker	TRPML1 agonist	Sfp PPTase inh	PINK1 expr mod	TRPV1 PAM	ClpP mod
CN1CCN(C(=S)Nc2ccc(Cl)cc2Cl)CC1	3.9	1	-0.7	-24%	-0.9%	14	-0.5%
CCCCCCc1ccc(N2C[C@H](Cc3ccccc3)[C@@H](CC(=O)NCc3ccc(OC)cc3)C2=O)cc1	0.0	-16	1.6&2.8	4%	2.6%	15	-6.1%&-3.0%
CSc1nc(NS(=O)(=O)c2ccc(F)cc2F)nn1C	.	-2	0.3	15%	1.0%	1	-0.9%
CCOCCN1CCN(c2c(CC)c(C)nc3cc(-c4cc(OC)cc(OC)c4)nn23)CC1	6.8	13	0.8	-4%	-1.5%	2	-29%
Cn1c(SCC(N)=O)nnc1-c1ccc(C(C)(C)C)cc1	-8.0	9	0.6	18%	0.0%	-7	2.5%
Cc1noc(NS(=O)(=O)c2ccc(NC(=O)c3cc(=O)c4ccccc4o3)cc2)c1C	.	1	-0.5	17%	0.2%	-11	-1.2%
O=[N+]([O-])c1ccc(N/N=C/c2ccccc2)c(F)c1	?	2	1.1	-27%	11%	-5	0.6%
O=C1N[C@@H](Cc2c[nH]c3ccccc23)C(=O)N[C@H]1Cc1ccccc1	.	3	3.5	.	1.1%	.	-0.3%
Cc1c(NS(=O)(=O)c2cccc(C(=O)Nc3cccc(F)c3)c2)c(=O)n(-c2ccccc2)n1C	.	6	-0.4	.	0.6%	-14	-2.1%
O=[N+]([O-])c1ccc(Sc2ccncn2)c([N+](=O)[O-])c1	.	0	-0.3	.	-1.2%	.	-0.3%
Cc1cccc(NC(=O)CCn2nc(C)cc2C)c1	3.1	11	-0.3	7%	0.3%	13	1.0%
O=C(COc1ccc(Cl)cc1)OCC(=O)N1CCCCCC1	1.8	7	0.1	16%	-0.6%	?	0.5%
CCSc1nc2sc3c(c2c(=O)[nH]1)CCc1ccccc1-3	-4.5	-22	2.2	-10%	5.3%	9	-17%
CNc1oc(-c2ccc(C)cc2)nc1P(=O)(c1ccccc1)c1ccccc1	-1.1	-6	-0.2	56µM*	-1.4%	9	-5.9%
CC(C)OC(=O)c1c(NC(=O)c2ccco2)sc2c1CCCCC2	5.9	26	2.5	32µM*	24%	-2	28µM*
Cc1cc2c(cc1NS(=O)(=O)c1ccc(NC(=O)CC(C)C)cc1)n(C)c(=O)c(=O)n2C	.	11	1.9	.	0.5%	.	34%
Cc1ccc(S(=O)(=O)NCc2ccc3c(c2)OCO3)cc1C	2.5	0	0.0	-4%	0.0%	-20	-1.8%
CCOC(=O)[C@H]1[C@H]2COc3cc(OC)ccc3[C@@H]2N2C(=O)N(c3ccc(Br)cc3)C(=O)[C@@]12C	-2.8	1	0.1	6%	3.0%	17	-1.3%
CC1CCN(S(=O)(=O)c2cccc(C(=O)NC3CCCC3)c2)CC1	0.9	-1	0.2	12%	2.8%	-15	1.1%
OC[C@H]1O[C@@H](c2nc(-c3ccccc3Br)no2)[C@H](O)[C@@H](O)[C@H]1O	.	0	0.5	.	0.9%	.	0.6%
Cc1cc(NC(=O)CCC(=O)N(c2ccccc2)C(C(=O)NC2CCCC2)c2cccs2)no1 (configuration not stated)	-2.4	-6	-0.7	-11%	-1.3%	-5	-0.2%
COc1ccc(N(CC(O)Cn2c(C)nc3ccccc32)S(=O)(=O)c2ccccc2)cc1 (configuration not stated)	3.5	3	-0.6	16%	10%	2	0.9%
COC(=O)c1cccc(CN2C(=O)C(C)Sc3ccc(C#N)cc32)c1 (configuration not stated)	.	.	-0.8	.	-1.2%	.	-0.3%
CC(=O)Oc1ccc(-c2nc3cc(Cl)ccc3c(=O)o2)cc1	-5.3	14	-0.1	2%	1.5%	?	.
Cc1ccc(-c2c(C(=O)NC(C)C)oc(=O)c3ccccc23)cc1	-0.8	0	0.1	?	-2.1%	8	.
COc1cccc(N2CC(C(=O)Nc3c(C(N)=O)oc4ccccc34)CC2=O)c1 (configuration not stated)	.	36	-0.8	.	-0.1%	8	-9.5%
COc1ccc(CNC(=O)c2nnn(CC(=O)Nc3cc(C)cc(C)c3)c2N)cc1	-3.3	2&6	-0.7&-0.6	-9%	9.7%&3.0%	?	2.0%&-1.8%
CCC(C)Oc1ccc(C(=O)Nc2ccc(CN3CCOCC3)cc2)cc1 (configuration not stated)	1.2	1	-0.1	-3%	2.8%	-15	1.6%
COc1ccc(C(=O)c2cc(C(C)=O)c(Nc3ccccc3)s2)cc1	5.1	26	1.4	50µM*	?	3	-26%
Cc1ccc(OCC(=O)Nc2ccc3nc(SCC(=O)Nc4ccc(C)cc4C)sc3c2)cc1	.	25	-0.6	.	0.8%	.	-3.4%
CC(=O)c1cccc(NC(=O)CN2C(=O)C3C4C=CC(C4)C3C2=O)c1 (configuration not stated)	-1.2	-5	0.4	5%	4.4%[38.3 µM]	-4	-0.2%
O=C(Nc1ccc(F)cc1)c1cccc(N2C(=O)C3C4C=CC(C5CC45)C3C2=O)c1 (configuration not stated)	0.1	-14	-0.2	2%	5.9%	-10	-0.4%
CCn1c(CNC(=O)c2ccccc2Cl)cc2ccccc21	0.8	17	0.2	13%	2.7%	-6	3.5%
O=S(=O)(NCCc1ccccc1F)c1cccc(S(=O)(=O)N2CCOCC2)c1	-1.7	-8	-0.2	-6%	1.8%[38.3 µM]	17	0.6%
Cc1nc2scc(C)n2c(=O)c1S(=O)(=O)NCC1CCN(Cc2ccc(F)cc2)CC1	.	17	0.0	-4%	-1.0%	-2	3.4%
O=C(NC(=S)Nc1ccc(N2CCOCC2)cc1)c1ccc(Cl)cc1	0.6	13	0.3	-12%	18%	-5	-0.5%
CNC(C)C#Cc1ccc2c(=O)c3ccccc3oc2c1 (configuration not stated)	.	-10	-0.9	.	-0.6%	.	-18%
O=C(O)c1ccc(C(=O)c2ccc3c(c2)C(=O)N(Cc2ccco2)C3=O)cc1	-2.1	-4	-0.4	13%	0.4%	-3	-1.0%
O=c1oc(-c2cccc(S(=O)(=O)N3CCOCC3)c2)nc2ccccc12	-3.5	12	0.3	?	1.0%	-15	-8.3%
CC(=O)N1CCN(C(=O)c2ccc(S(=O)(=O)Nc3cccc(C(F)(F)F)c3)cc2)CC1	.	39	-0.3	.	3.3%	5	.
COc1ccccc1C/C(N)=N/OC(=O)COc1ccc(C)cc1C	.	0	2.0	.	-5.2%[38.3 µM]	.	0.3%
CC(=O)c1ccc(NC(=O)CSc2ccc3nc(-c4ccccc4)cn3n2)cc1	.	18	0.6	.	2.5%	.	4.8%
O=S(=O)(c1ccc(Cl)cc1)c1nc(-c2cccs2)oc1SCc1ccccc1F	.	-11	0.1	.	-0.5%	.	-6.6%
COc1cccc(C2C(C(=O)Nc3cccnc3)=C(C)Nc3nnnn32)c1OC (configuration not stated)	1.9	-15	-0.5	7%	0.1%	-3	-6.2%
COc1ccccc1N1CCN(C2CCCN(C(=O)c3cc(C)oc3C)C2)CC1 (configuration not stated)	-0.9	1	0.2	1%	0.0%	?	-2.7%

Arranged by length of the SMILES (lowest first): some entries from above
SMILES	Menin-MLL FL inh	TRPML1 blocker	TRPML1 agonist	Sfp PPTase inh	PINK1 expr mod	TRPV1 PAM	ClpP mod
CNC(C)C#Cc1ccc2c(=O)c3ccccc3oc2c1 (configuration not stated)	.	-10	-0.9	.	-0.6%	.	-18%
CCn1c(CNC(=O)c2ccccc2Cl)cc2ccccc21	0.8	17	0.2	13%	2.7%	-6	3.5%
COc1ccccc1C/C(N)=N/OC(=O)COc1ccc(C)cc1C	.	0	2.0	.	-5.2%[38.3 µM]	.	0.3%
O=C(NC(=S)Nc1ccc(N2CCOCC2)cc1)c1ccc(Cl)cc1	0.6	13	0.3	-12%	18%	-5	-0.5%
O=S(=O)(NCCc1ccccc1F)c1cccc(S(=O)(=O)N2CCOCC2)c1	-1.7	-8	-0.2	-6%	1.8%[38.3 µM]	17	0.6%
O=C(Nc1ccc(F)cc1)c1cccc(N2C(=O)C3C4C=CC(C5CC45)C3C2=O)c1 (configuration not stated)	0.1	-14	-0.2	2%	5.9%	-10	-0.4%
CC(=O)N1CCN(C(=O)c2ccc(S(=O)(=O)Nc3cccc(C(F)(F)F)c3)cc2)CC1	.	39	-0.3	.	3.3%	5	.

Two consecutive compounds out of the list so far, quoted:
SMILES	Menin-MLL FL inh	TRPML1 blocker	TRPML1 agonist	Sfp PPTase inh	PINK1 expr mod	TRPV1 PAM	ClpP mod
CC(=O)c1cccc(NC(=O)CN2C(=O)C3C4C=CC(C4)C3C2=O)c1 (configuration not stated)	-1.2	-5	0.4	5%	4.4%[38.3 µM]	-4	-0.2%
O=C(Nc1ccc(F)cc1)c1cccc(N2C(=O)C3C4C=CC(C5CC45)C3C2=O)c1 (configuration not stated)	0.1	-14	-0.2	2%	5.9%	-10	-0.4%

New compounds follow:
SMILES	Menin-MLL FL inh	TRPML1 blocker	TRPML1 agonist	Sfp PPTase inh	PINK1 expr mod	TRPV1 PAM	ClpP mod
CC1=C(O)C(=O)OC1c1c(Cl)cccc1Cl (configuration not stated)	0.0	56	0.8	12%	2.2%	10	.
CC(=O)c1ccc(NC(c2ccc(F)cc2)c2nnc(-c3ccccc3)o2)cc1 (configuration not stated)	.	7	-0.6	.	2.6%	.	-19%
Cc1ccc2nc(-c3ccc(NC(=O)C(C)Sc4nncs4)cc3)sc2c1 (configuration not stated)	.	38	1.2	.	2.2%	.	3.3%
CCOc1ccc(-c2oc3cc(Cl)ccc3c(=O)c2O)cc1OC	.	6	23	.	1.2%	.	-8.6%
CCc1sc(C(=O)NNC(=O)CNC(=O)c2ccccc2F)cc1C	.	49	0.3	.	-0.8%	-2	-2.8%
CC1=NN(c2ccccc2)C(=O)/C1=C/c1cn(C)c2ccccc12	-2.0	64	2.2	-11%	1.9%	.	.

This is a random part of the collection. About 4.4% of those tested had a hit in this group.
